# High-throughput results (PubChem BioAssay)
# AF4-AF9 inh – blocks AF4 peptide binding to human AF9; AlphaScreen, biotin-AF4 peptide binding to FLAG-AF9; inhibition, % at 10 µM; 350,000 compounds, 0.47% hits;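 active = every replicate reaching a set inhibition limit, whatever the replicate mean, cut at about 25% in these data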;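 note: 0% = plate neutral control median and 100% = total signal loss; the record names both 10 and 1 µM as test concentration; the first replicate is given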
# Target sequence (P42568 whole entry, looked up): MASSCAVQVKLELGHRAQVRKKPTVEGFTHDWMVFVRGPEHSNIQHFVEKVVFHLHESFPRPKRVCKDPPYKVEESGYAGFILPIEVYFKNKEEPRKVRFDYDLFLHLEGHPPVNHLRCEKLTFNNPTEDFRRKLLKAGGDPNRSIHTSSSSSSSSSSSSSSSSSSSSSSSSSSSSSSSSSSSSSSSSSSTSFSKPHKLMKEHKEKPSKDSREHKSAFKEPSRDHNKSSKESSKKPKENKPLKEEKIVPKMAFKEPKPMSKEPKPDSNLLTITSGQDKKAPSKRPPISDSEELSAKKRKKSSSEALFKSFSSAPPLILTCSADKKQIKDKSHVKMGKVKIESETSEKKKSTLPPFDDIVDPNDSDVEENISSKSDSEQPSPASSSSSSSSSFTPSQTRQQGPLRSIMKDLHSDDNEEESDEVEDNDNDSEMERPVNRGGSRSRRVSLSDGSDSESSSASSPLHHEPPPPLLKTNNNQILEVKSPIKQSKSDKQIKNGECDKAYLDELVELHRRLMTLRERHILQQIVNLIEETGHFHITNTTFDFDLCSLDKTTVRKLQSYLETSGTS
# Numbers without * were called inactive. A portion of the library; count on the stated rates, not on these rows.
AF4-AF9 inh	Structure
-3.6	O=C(C[C@H]1CC[C@@H](NS(=O)(=O)c2ccc(F)cc2)[C@H](CO)O1)NCc1ccccc1F
-0.6	C[C@H]1CN([C@@H](C)CO)C(=O)c2cc(NC(=O)Cn3cnnn3)ccc2O[C@@H]1CN(C)Cc1ccc2c(c1)OCO2
2.4	CCNC(=S)Nc1ccc2c(c1)c(=O)n(C)n2-c1cc(C)cc(C)c1
-1.2	COC(=O)[C@@]1(Sc2ccc(C)cc2)CC(=O)N(c2ccccc2)[C@@H]1c1ccccc1
-3.8	C[C@H](CO)N1C[C@H](C)[C@H](CN(C)C(=O)C2CC2)Oc2ncc(-c3ccc(C(=O)N(C)C)cc3)cc2C1=O
-0.6	C[C@H](CO)N1C[C@H](C)[C@@H](CN(C)Cc2ccc(C(F)(F)F)cc2)Oc2c(NC(=O)C3CC3)cccc2C1=O
-0.5	CC=Cc1ccc2n(c1=O)C[C@H]1[C@H](CO)[C@@H](C(=O)NCC3CC3)[C@@H]2N1C(=O)CC (mixture of isomers)
0.1	CN(C)CC#Cc1ccc([C@@H]2[C@H](CO)N3C(=O)CN(C(=O)Cc4cccnc4)C[C@@H]23)cc1
-0.7	O=C(C[C@@H]1CC[C@H](NC(=O)Nc2ccc3c(c2)OCO3)[C@@H](CO)O1)NCc1ccc2c(c1)OCO2
-2.5	O=C(C[C@H]1CC[C@@H]2NC[C@H](O)COC[C@H]2O1)NCc1ccc2c(c1)OCO2
-2.2	C[C@H](CO)N1C[C@H](C)[C@H](CN(C)S(=O)(=O)c2ccccc2F)Oc2cc(C#Cc3ccccc3)ccc2S1(=O)=O
0.5	CN(C)CC(=O)N1[C@@H](C#N)[C@@H](c2ccc(-c3ccccc3F)cc2)[C@@H]1CO
1.3	N#C[C@@H]1[C@@H](c2ccc(C#Cc3ccc(F)cc3)cc2)[C@H](CO)N1C(=O)C1CCCC1
2.4	C[C@H]1CN([C@@H](C)CO)C(=O)Cc2cc(NC(=O)Nc3cccc4ccccc34)ccc2O[C@H]1CN(C)C(=O)Nc1ccccc1
-4.0	CC(=O)N1[C@@H](CO)[C@H](c2ccccc2)C12CN(C(=O)Nc1ccccc1F)C2
-4.0	CN1C(=O)N(C)N(Cc2ccccc2)C(=O)N1Cc1ccccc1
-2.2	C[C@@H]1CN([C@H](C)CO)C(=O)Cc2cc(NC(=O)Nc3ccc(C(F)(F)F)cc3)ccc2O[C@H]1CN(C)C(=O)Nc1ccccc1
-2.0	C[C@@H]1CN([C@@H](C)CO)C(=O)Cc2cc(NC(=O)Nc3ccccc3)ccc2O[C@@H]1CN(C)S(=O)(=O)c1cn(C)cn1
2.5	COCC(=O)N1[C@H](C#N)[C@H](c2ccc(C3=CCCCC3)cc2)[C@@H]1CO
-9.2	Cc1ccccc1-c1ccccc1[C@H]1[C@@H](CO)N(C(=O)c2ccccc2)[C@H]1C#N

# (further entries)
AF4-AF9 inh	Structure
1.4	C[C@H](CO)N1C[C@H](C)[C@H](CN(C)S(=O)(=O)c2cccs2)OCCCC[C@H](C)Oc2ccc(NC(=O)c3ccncc3)cc2C1=O
1.0	C[C@@H]1CN([C@@H](C)CO)C(=O)c2cc(NC(=O)NC3CCCCC3)ccc2O[C@@H](C)CCCCO[C@H]1CN(C)C(=O)CCCN(C)C
2.4	CCCNC(=O)[C@H]1[C@H](CO)[C@H]2Cn3c(ccc(-c4cccnc4)c3=O)[C@H]2N1CCC
-0.1	CC(C)Oc1cccc(C(=O)Nc2nnc([C@H]3C[C@H](O)[C@@H](CO)O3)s2)c1
-1.9	C[C@@H]1CN([C@H](C)CO)C(=O)c2cc(NC(=O)Cn3cnnn3)ccc2O[C@H]1CN(C)C(=O)Nc1ccc(F)cc1
-0.1	CS(=O)(=O)Nc1ccc2c(c1)[C@@H]1C[C@@H](CC(=O)NCC3CC3)O[C@H](CO)[C@@H]1O2
-2.2	CC(C)NC(=O)N(C)C[C@H]1Oc2ccc(NS(=O)(=O)c3cccs3)cc2CC(=O)N([C@H](C)CO)C[C@@H]1C
2.7	CN(C)CC(=O)Nc1ccc2c(c1)[C@@H]1C[C@@H](CC(=O)NCc3ccc4c(c3)OCO4)O[C@@H](CO)[C@@H]1O2
5.3	CN1C(=O)c2cc(NC(=O)Nc3ccc(Cl)cc3)ccc2OC[C@H]2O[C@H](CC(=O)NCCN3CCCCC3)CC[C@@H]21
-0.3	O=C(Nc1cc(F)ccc1F)N[C@H]1CC[C@@H](CCn2cc(C3CCCC3)nn2)O[C@@H]1CO
-3.2	C=CCNC(=O)[C@@H]1[C@H]2C(=O)O[C@H](c3ccccc3)[C@H](c3ccccc3)N2[C@H](c2ccccc2OCCO)[C@@]12C(=O)N(C(=O)OCCOC)c1ccc(C#CCC(C(=O)OC)C(=O)OC)cc12
-3.2	C[C@H]1CN([C@@H](C)CO)C(=O)c2cc(-c3cccc(F)c3)cnc2O[C@@H]1CN(C)Cc1ccccn1
3.4	CC(C)[C@H]1COCCS(=O)(=O)N1Cc1ccccc1-c1cccc2c1sc1ccccc12
-6.0	O=C(NCC(O)c1nc2ccccc2[nH]1)c1cc([N+](=O)[O-])ccc1F (stereo not given)
0.2	C[C@@H]1CN([C@H](C)CO)C(=O)c2ccccc2-c2ccccc2CO[C@H]1CN(C)C(=O)NC1CCCCC1
-0.7	O=S(=O)(c1ccc(F)cc1)N1CCCCN2[C@@H](CO)[C@H](c3ccc(-c4ccccc4)cc3)[C@@H]2C1
0.7	C[C@@H]1CN([C@H](C)CO)C(=O)c2cc(NS(=O)(=O)c3ccc(F)cc3)ccc2O[C@H]1CN(C)Cc1ccccc1
15.0	S=C(NCCCCN(Cc1ccc(Cl)cc1)c1ccc(Br)cn1)NCCCc1cnc[nH]1
-2.1	O=C(NCC[C@H]1CC[C@@H](NC(=O)c2ccccc2F)[C@H](CO)O1)c1ccc2c(c1)OCO2
0.1	Cc1cccc(-c2ccc([C@H]3[C@H]4CN(S(=O)(=O)c5cn(C)cn5)CCCCN4[C@H]3CO)cc2)c1

# Other structures follow.
AF4-AF9 inh	Structure
-1.5	Cc1noc(C)c1NC(=O)Nc1cccc2c1O[C@@H](CN(C)CC1CC1)[C@H](C)CN([C@H](C)CO)C2=O
4.9	COc1ccc(CN2C[C@H](C)[C@H](OC)CN(C)C(=O)c3cc(NC(=O)c4nc5ccccc5s4)ccc3OC[C@@H]2C)cc1
0.6	C[C@H](CO)N1C[C@H](C)[C@H](CN(C)C(=O)c2cccc(F)c2)Oc2cc(C#CC3CC3)ccc2S1(=O)=O
-9.5	Cc1cccc(S(=O)(=O)NC(=O)C2(C)CCN2C(=O)C2(c3ccc(Cl)cc3)CC2)c1 (stereo not given)
-7.5	Cc1noc(C)c1S(=O)(=O)Nc1ccc2c(c1)C(=O)N([C@@H](C)CO)C[C@@H](C)[C@H](CN(C)C(=O)NC1CCCCC1)O2
0.1	COc1ccc(S(=O)(=O)Nc2ccc3c(c2)CC(=O)N([C@@H](C)CO)C[C@H](C)[C@H](CN(C)C(=O)Nc2ccc(C(F)(F)F)cc2)O3)cc1
-3.9	C[C@@H]1CCCCO[C@H](CN(C)Cc2ccncc2)[C@H](C)CN([C@H](C)CO)C(=O)c2cc(NC(=O)c3ccccc3)ccc2O1
-0.4	CN1C(=O)c2cc(NC(=O)C3CCOCC3)ccc2OC[C@@H]2O[C@@H](CC(=O)NCc3ccccc3F)CC[C@H]21
-1.9	CCS(=O)(=O)Nc1ccc2c(c1)C(=O)N(C)C[C@@H](OC)[C@H](C)CN[C@H](C)CO2
0.3	Cc1ccsc1C(=O)N1CCCC(C)(C(=O)O)C1 (stereo not given)
-3.6	CCC(=O)N(C)C[C@@H]1Oc2ncc(C#C[C@H](C)O)cc2C(=O)N([C@H](C)CO)C[C@@H]1C
-3.4	CCCNC(=O)N(C)C[C@H]1Oc2ncc(-c3cccc(C#N)c3)cc2C(=O)N([C@@H](C)CO)C[C@H]1C
0.4	CC(C)C#Cc1ccc([C@H]2[C@@H](C#N)N(C(=O)C3CCC3)[C@H]2CO)cc1
-1.9	CC(=O)N1[C@H](CO)[C@@H](c2ccccc2)[C@@H]1CN(CC1CCC1)C(=O)CN(C)C
-1.0	C[C@@H]1CN([C@@H](C)CO)C(=O)c2cc(NC(=O)Cc3ccccc3)ccc2O[C@@H]1CN(C)C(=O)Nc1ccc(F)cc1
3.6	CCC(=O)Nc1ccc2c(c1)OC[C@H](C)N(Cc1cccc(F)c1)C[C@H](C)[C@@H](OC)CN(C)C2=O
-1.4	C[C@H](CO)N1C[C@H](C)[C@@H](CN(C)C)Oc2cc(C#CC(C)(C)O)ccc2S1(=O)=O
1.4	O=c1n(-c2ccccc2)c(=O)n2n1CC(COc1ccccc1)=C1[C@@H](c3ccccc3)OB(O)C[C@@H]12
5.3	CO[C@@H]1CN(C)C(=O)c2cc(NC(=O)NC(C)C)ccc2OC[C@@H](C)N(C(=O)C2CCC2)C[C@@H]1C
7.1	C[C@H](CO)N1C[C@H](C)[C@H](CN(C)Cc2ccncc2)Oc2ncc(C#CC3CCCCC3)cc2C1=O

# More structures follow:
AF4-AF9 inh	Structure
-9.5	C[C@H](CO)N1C[C@H](C)[C@H](CN(C)C(=O)Cc2ccccc2)OCCCC[C@H](C)Oc2ccc(NS(=O)(=O)c3ccc(Cl)cc3)cc2C1=O
57.1*	CN(C)c1ccc(NC(=O)Nc2nc(C(N)C3CCCCC3)cs2)cc1 (stereo not given)
5.1	C[C@H]1CN([C@@H](C)CO)C(=O)c2cc(C#CCN(C)C)cnc2O[C@H]1CN(C)Cc1cccc(F)c1
-0.7	CCCC(=O)N1CCC1(C)C(=O)NCc1ccccc1SC (stereo not given)
-0.2	CO[C@@H]1CC[C@H]2CCOc3ccc(C#N)cc3C(=O)N(C)C[C@@H](C)C(=O)N(C)C[C@H]1O2
0.4	Cn1cnc(CCNC(=O)C[C@H]2CC[C@@H]3[C@H](COC[C@@H](O)CN3C(=O)Nc3ccc(F)cc3)O2)c1
-0.5	C[C@H](CO)N1C[C@H](C)[C@H](CN(C)S(=O)(=O)c2cccs2)Oc2c(NC(=O)Nc3cccc4ccccc34)cccc2C1=O
-5.7	C[C@H](CO)N1C[C@H](C)[C@H](CN(C)C(=O)CN(C)C)Oc2cc(C#CC(C)(C)O)ccc2S1(=O)=O
1.5	C[C@H](CO)N1C[C@H](C)[C@H](CN(C)Cc2ccc(Cl)c(Cl)c2)Oc2ccc(NS(=O)(=O)c3ccccc3)cc2C1=O
-1.7	CCCNC(=O)C[C@H]1CC[C@@H]2[C@@H](COc3ccc(NC(=O)c4ccccc4)cc3C(=O)N2C)O1
1.3	Cc1ccc(S(=O)(=O)N(C)C[C@H]2Oc3cc(C#Cc4ccncc4)ccc3S(=O)(=O)N([C@@H](C)CO)C[C@@H]2C)cc1
0.1	C/C=C/c1ccc([C@@H]2[C@@H](CO)N(C(=O)Cc3cccnc3)[C@H]2CNC(C)=O)cc1
3.0	COc1ccc(C(O)c2ncc(-c3ccccc3)[nH]2)c(OC)c1 (stereo not given)
-2.2	Cc1cccc(CN(C)C[C@@H]2OCc3cn(nn3)CCCC(=O)N([C@H](C)CO)C[C@@H]2C)c1
0.8	CN1[C@@H]2c3ccc(C4=CCCCC4)c(=O)n3C[C@H]1[C@H](CO)[C@H]2C(=O)NCc1cc(F)cc(F)c1
-1.9	CC(C)NC(=O)Nc1cccc2c1O[C@@H](CN(C)S(=O)(=O)c1ccc(F)cc1)[C@H](C)CN([C@H](C)CO)C2=O
-1.8	Cc1ccc(S(=O)(=O)N(C)C[C@@H]2OCCCC[C@@H](C)Oc3ccc(NC(=O)NC(C)C)cc3C(=O)N([C@H](C)CO)C[C@@H]2C)cc1
-1.6	C[C@@H]1CN([C@@H](C)CO)C(=O)c2cc(C#Cc3cccc(F)c3)cnc2O[C@H]1CN(C)C(=O)c1ccccc1F
-2.3	C[C@@H]1CN([C@@H](C)CO)C(=O)c2cc(NC(=O)NC3CCCCC3)ccc2O[C@H]1CN(C)C
0.7	C[C@@H]1CN([C@@H](C)CO)S(=O)(=O)c2ccc(/C=C/c3ccccc3)cc2O[C@H]1CN(C)C(=O)Nc1ccc(F)cc1
-8.1	OC(c1ccc(F)c(F)c1)c1nc(-c2ccccc2)cs1 (stereo not given)
-1.3	COC(=O)[C@H]1[C@H](CO)[C@H]2Cn3c(cccc3=O)[C@H]2N1C(=O)C1CCC1
-0.9	C[C@@H]1CCCCO[C@H](CN(C)C(=O)Cc2ccccc2)[C@H](C)CN([C@@H](C)CO)C(=O)c2cc(NS(=O)(=O)c3cn(C)cn3)ccc2O1

# An excerpt of these results, as comma-separated lines.
SMILES,AF4-AF9 inh
C[C@H](CO)N1C[C@H](C)[C@H](CN(C)C(=O)Cc2ccccc2)OCCCC[C@H](C)Oc2ccc(NS(=O)(=O)c3ccc(Cl)cc3)cc2C1=O,-9.5
CN(C)c1ccc(NC(=O)Nc2nc(C(N)C3CCCCC3)cs2)cc1 (stereo not given),57.1*
C[C@H]1CN([C@@H](C)CO)C(=O)c2cc(C#CCN(C)C)cnc2O[C@H]1CN(C)Cc1cccc(F)c1,5.1
CCCC(=O)N1CCC1(C)C(=O)NCc1ccccc1SC (stereo not given),-0.7
CO[C@@H]1CC[C@H]2CCOc3ccc(C#N)cc3C(=O)N(C)C[C@@H](C)C(=O)N(C)C[C@H]1O2,-0.2
Cn1cnc(CCNC(=O)C[C@H]2CC[C@@H]3[C@H](COC[C@@H](O)CN3C(=O)Nc3ccc(F)cc3)O2)c1,0.4
C[C@H](CO)N1C[C@H](C)[C@H](CN(C)S(=O)(=O)c2cccs2)Oc2c(NC(=O)Nc3cccc4ccccc34)cccc2C1=O,-0.5
C[C@H](CO)N1C[C@H](C)[C@H](CN(C)C(=O)CN(C)C)Oc2cc(C#CC(C)(C)O)ccc2S1(=O)=O,-5.7
C[C@H](CO)N1C[C@H](C)[C@H](CN(C)Cc2ccc(Cl)c(Cl)c2)Oc2ccc(NS(=O)(=O)c3ccccc3)cc2C1=O,1.5
CCCNC(=O)C[C@H]1CC[C@@H]2[C@@H](COc3ccc(NC(=O)c4ccccc4)cc3C(=O)N2C)O1,-1.7
Cc1ccc(S(=O)(=O)N(C)C[C@H]2Oc3cc(C#Cc4ccncc4)ccc3S(=O)(=O)N([C@@H](C)CO)C[C@@H]2C)cc1,1.3
C/C=C/c1ccc([C@@H]2[C@@H](CO)N(C(=O)Cc3cccnc3)[C@H]2CNC(C)=O)cc1,0.1
COc1ccc(C(O)c2ncc(-c3ccccc3)[nH]2)c(OC)c1 (stereo not given),3.0
